Source: PubChem BioAssay (Southern Research Specialized Biocontainment Screening Center)
Mtb betalactam: beta-lactam sensitization of Mtb H37Rv. M. tuberculosis H37Rv growth with meropenem, percent inhibition; hits of this screen are not shown here. inhibition, % at 25 µM. 0.27% of 330,000 active;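 active = about 74% or more and at least 40 points above the plate without the antibiotic, then above 30% in a dose series; inconclusive = first-round hits that could not be retested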;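 note: growth measured after seven days incubation then overnight dye step; 0% = bacteria only wells and 100% = bacteria with antibiotic; twin plates without the antibiotic show which effects depend on it; some results filed as inactive read as strong as hits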
Numbers without * were called inactive; u = inconclusive. These rows are one share of the data; rates above refer to the full screens.

SMILES | Mtb betalactam
C/C(=N\NC(=O)c1ccc2ccccc2c1)c1cccnc1 | 3
O=C(CN1C(=O)NC2(CCCCCCC2)C1=O)Nc1ccc(OC(F)F)cc1 | 3
CCN(Cc1ccc2c(c1)OCCO2)C(=O)CN1C(=O)NC2(CCc3ccccc32)C1=O (stereo not given) | 0
Cc1cccc(NC(=O)CNC(=O)CN2C(=O)NC3(CCCCC3C)C2=O)c1C (stereo not given) | -15
COc1ccc(NC(=O)/C(=C\c2ccc(F)cc2)NC(=O)c2ccco2)cc1 | 4
Nc1ncnc2c1ncn2C1CCCC1 | 1
Cc1cc(C)n(C(C)CNC(=O)c2ccc3c(c2)OCO3)n1 (stereo not given) | -4
COc1ccc(C(=O)Nc2nc(-c3ccccn3)cs2)cc1S(=O)(=O)N1CCOCC1 | 88
CCOc1ccc(C(=O)CCC(=O)Nc2ccncc2)cc1 | 11
COc1cc(C(=O)NCC(=O)NNC(=O)CN(C)S(=O)(=O)c2ccc(Cl)cc2)cc(OC)c1OC | -2
CS(=O)(=O)N(Cc1ccccc1)c1ccc(C(=O)Nc2ccc(C(N)=O)cc2)cc1 | 1
Cc1ccc(S(=O)(=O)N2[C@@H](c3cccc4ccccc34)C(C(=O)O)=C[C@H]2C(C)(C)C)cc1 | -3
O=C(NCc1ccc(F)cc1)c1cc2ccccc2o1 | 8
CN(CC(=O)Nc1ccccc1Br)C(=O)CN1CCN(c2ccccc2Cl)CC1 | -11
Cc1cc(C(=O)COC(=O)c2cc(Cl)c(O)c(Cl)c2)c(C)n1C | -3
O=C1C=C(c2ccccc2Oc2ccccc2)C[C@@H](c2ccc3c(c2)OCO3)C1 | -5
O=C(CCS(=O)(=O)c1ccccc1)NNC(=O)CSc1ccccc1F | -2
N#Cc1ccccc1OCC(=O)NNC(=O)c1ccncc1 | 79
Nc1ccc(O)c([N+](=O)[O-])c1 | -3
OC[C@H]1O[C@@H](Oc2ccc3cc(Br)ccc3c2)[C@H](O)[C@@H](O)[C@H]1O | 1
O=C(OCCc1cc2ccccc2c(=O)o1)N1CCOCC1 | 2
CN(C(=O)COC(=O)c1ccc2ccccc2n1)C1CCCCC1 | 56
O=C(CN1CCN(C(C(=O)Nc2ccc(Cl)cc2C(F)(F)F)c2ccccc2)CC1)NC1CC1 (stereo not given) | -7
Cc1nc(C)c(C(=O)OCC(=O)Nc2ccccc2)s1 | 1
Cc1ccc(NC(=O)COC(=O)c2ccco2)cc1C | 6
Cc1cc(NC(=O)COC(=O)C2CC(=O)N(c3ccc(Br)cc3)C2)no1 (stereo not given) | 3
CCN(C(=O)CSc1nnc(-c2c[nH]c3ccccc23)n1C1CC1)C1CCS(=O)(=O)C1 (stereo not given) | -5
C[C@H](CO)N1C[C@H](C)[C@@H](CN(C)S(=O)(=O)c2ccccc2)Oc2c(cccc2N(C)C)C1=O | -12
COc1ccc(Cl)cc1NC(=O)CN(C)C(=O)c1cccc(-n2cnnn2)c1 | -13
CCc1cc(=O)oc2c3c(cc(OCC(=O)NCc4ccncc4)c12)OC(C)(C)CC3 | -7
COc1ccc(NC(=O)C/C(C)=N/NC(=O)C2CCCCC2)c([N+](=O)[O-])c1 | 0
Cc1ccc(S(=O)(=O)c2nc(-c3ccco3)oc2SC(C)C)cc1 | 1
COc1cccc(OCc2cc(C(=O)N3CCCC3c3ccccn3)no2)c1 (stereo not given) | 1
Cc1ccc(Cn2c(N)nc3ccccc32)cc1 | -4
Cc1cc(NC(=O)C(C)SCC(=O)OCC(=O)Nc2c(C)cccc2C(C)C)no1 (stereo not given) | 2
CC(=O)O[C@H]1CC[C@@]2(C)C(=CC[C@@H]3[C@@H]2CC[C@]2(C)C(=O)CC[C@@H]32)C1 | 1
CC[C@H](C)C(N)c1cn([C@@H](CC(N)=O)C(=O)N2CCNCC2)nn1 (stereo not given in full) | -11
CN(Cc1cccc(Cl)c1Cl)C(=O)CCNC(=O)c1ccco1 | -5
C=CCNS(=O)(=O)NC(=O)C1=C(N2CCCC2)COC1=O | 8
CSCCC(NC(=O)c1ccc(Cl)cc1Cl)C(=O)N1CC(C)OC(C)C1 (stereo not given) | 2
O=C(NCc1cccc(F)c1)c1cccc2c1C(=O)c1ccc(N3CCCC3)cc1S2(=O)=O | 1
CCOC(=O)C1CCCN(C(=O)c2cccc(S(=O)(=O)N3CCCC3)c2)C1 (stereo not given) | -6
CCOc1ccc(C(=O)NC(C)CCc2ccccc2)cc1 (stereo not given) | 2
Cc1ccc(S(=O)(=O)N2CC(O)CC2C(=O)OCC(=O)Nc2ccc([N+](=O)[O-])cc2C(F)(F)F)cc1C (stereo not given) | -2
COc1ccc(Cl)cc1NC(=O)CN(C)C(=O)CSc1ccc2c(c1)OCCO2 | -2
CCCCn1c(N)c(N(CC)C(=O)c2ccc([N+](=O)[O-])c(C)c2)c(=O)[nH]c1=O | -3
O=C(CCc1ccccc1Cl)N1CCN(S(=O)(=O)c2ccccc2)CC1 | 4
COc1ccccc1N1CCN(C(=O)c2ccc(-c3nc4ccccc4s3)o2)CC1 | 49

Quoted from the entries so far, 14 compounds:
SMILES | Mtb betalactam
Cc1ccc(S(=O)(=O)N2[C@@H](c3cccc4ccccc34)C(C(=O)O)=C[C@H]2C(C)(C)C)cc1 | -3
O=C(NCc1ccc(F)cc1)c1cc2ccccc2o1 | 8
CN(CC(=O)Nc1ccccc1Br)C(=O)CN1CCN(c2ccccc2Cl)CC1 | -11
Cc1cc(C(=O)COC(=O)c2cc(Cl)c(O)c(Cl)c2)c(C)n1C | -3
O=C1C=C(c2ccccc2Oc2ccccc2)C[C@@H](c2ccc3c(c2)OCO3)C1 | -5
O=C(CCS(=O)(=O)c1ccccc1)NNC(=O)CSc1ccccc1F | -2
N#Cc1ccccc1OCC(=O)NNC(=O)c1ccncc1 | 79
Nc1ccc(O)c([N+](=O)[O-])c1 | -3
OC[C@H]1O[C@@H](Oc2ccc3cc(Br)ccc3c2)[C@H](O)[C@@H](O)[C@H]1O | 1
O=C(OCCc1cc2ccccc2c(=O)o1)N1CCOCC1 | 2
CN(C(=O)COC(=O)c1ccc2ccccc2n1)C1CCCCC1 | 56
O=C(CN1CCN(C(C(=O)Nc2ccc(Cl)cc2C(F)(F)F)c2ccccc2)CC1)NC1CC1 (stereo not given) | -7
Cc1nc(C)c(C(=O)OCC(=O)Nc2ccccc2)s1 | 1
Cc1ccc(NC(=O)COC(=O)c2ccco2)cc1C | 6

Next part
SMILES | Mtb betalactam
Cc1ccc(S(=O)(=O)Nc2ccc(F)c(S(=O)(=O)N3CCOCC3)c2)cc1 | -5
COc1ccc(NC(=O)CCOc2ccc(C)cc2)cc1S(=O)(=O)N1CCCCC1 | -1
COc1ccc(-c2c(-c3ccc(OC)nc3)c3ccccc3n2C)cc1 | -3
COc1cc(CC(=O)N2C[C@H]3C[C@@H](C2)c2cccc(=O)n2C3)cc(OC)c1OC | -3
O=C(c1ccc(S(=O)(=O)NCc2ccco2)cc1)N1CCN(c2ccccc2)CC1 | 0
N#Cc1nc(NCC(F)F)nc(Nc2cc(F)cc(F)c2)n1 | 84
COc1cc(OC)cc(-c2c(-c3ccc(F)cc3)c3cc(-c4ccc5cc[nH]c5c4)ccc3n2C)c1 | -6
COc1ccc(OC)c(-c2nnc3n2N=C(c2ccc(OC)c(OC)c2)CS3)c1 | 7
COC(=O)C1=C(c2ccc(-c3ccccc3)c(F)c2)C[C@@H]2CC[C@H]1N2C(=O)NC1CCCCC1 | 5
CC(=O)N1CCN(c2ccc(NCc3ccco3)cc2)CC1 | 0
Cc1ccc(NC(=O)CN(C)C(=O)Nc2ccc(C)cc2)cc1 | 1
Cc1cc2ncn(S(=O)(=O)c3ccc(F)cc3)c2cc1C | 3
Cc1ccccc1OC(=O)c1cccc(S(=O)(=O)N2CCN(C)CC2)c1 | -4
Cc1cc(C(=O)NNC(=O)C(C)NS(=O)(=O)c2ccccc2F)c(C)o1 (stereo not given) | 3
Cc1nn(CC(=O)NC2CCS(=O)(=O)C2)c(C)c1[N+](=O)[O-] (stereo not given) | 2
O=C(NCC1CCCO1)c1cccc(S(=O)(=O)Nc2ccc(F)cc2)c1 (stereo not given) | -8
COC(=O)c1cc(NC(=O)COC(=O)C2COc3ccccc3O2)cc(C(=O)OC)c1 (stereo not given) | 0
Cc1cc(NC(=O)COC(=O)c2ccc(C)c(C)c2)no1 | 3
Cc1ccc(S(=O)(=O)N2CCOCC2)cc1C(=O)OCC(=O)N1CCCCC1 | -2
O=c1cc(CO)oc2ccccc12 | -1
CCn1cc(C(=O)NC2CCCc3c2cnn3-c2cccc(C)c2C)cn1 (stereo not given) | u
O=C(C[C@H]1C/C=C\CC[C@H](Cc2ccc(F)cc2)C(=O)O[C@@H](c2ccccc2)CNC1=O)N[C@H](CO)Cc1ccccc1 | -11
C=CC[N@@+]12CC[C@]34c5ccccc5N5/C=C6\C7N(/C=C(\C53)[C@@H](C[C@@H]41)/C(=C/CO)C2)c1ccccc1[C@@]71CC[N@@+]2(CC=C)C/C(=C\CO)[C@@H]6C[C@@H]12 (stereo not given in full) | 77
O=C1c2ccccc2C(=O)N1CCCCCCc1ccccc1 | 3

Given with tabs: two of the compounds above.
molecule	Mtb betalactam
Cc1ccccc1OC(=O)c1cccc(S(=O)(=O)N2CCN(C)CC2)c1	-4
O=C(NCC1CCCO1)c1cccc(S(=O)(=O)Nc2ccc(F)cc2)c1 (stereo not given)	-8

Additional records.
SMILES | Mtb betalactam
Cc1ccc(C(C)C)c(OCCNCCc2ccccc2)c1 | 67
COC(=O)C1C2CC[C@@H](CC1OC(=O)c1ccccc1)N2 (stereo not given in full) | -4
CCC1(CC)NC(=O)N(CC(=O)OCC(=O)Nc2ccccc2OC(F)F)C1=O | -4
COc1ccc(-c2csc(NC(=O)c3ccccc3OC)c2C(=O)O)cc1OC | 11
COc1cc(S(=O)(=O)N2CCN(Cc3ccc4c(c3)OCO4)CC2)ccc1NC(C)=O | -4
C=CCN(Cc1ccc(Cl)s1)C(=O)c1ccc(F)c(S(=O)(=O)N2CCOCC2)c1 | 3
O=C(c1ccc(Cl)c(S(=O)(=O)N2CCOCC2)c1)N1CCc2ccccc2C1 | -2
Cc1ccc(NC(=O)c2ccc(N3CCCC3=O)cc2)cc1S(=O)(=O)N1CCCCC1 | 3
CC1CCN(C(=O)CN2C(=O)NC3(CCC(C)CC3)C2=O)CC1 (stereo not given) | 2
Cc1cc(NC(=O)C(C)SCC(=O)Nc2nc3c(F)cc(F)cc3s2)no1 (stereo not given) | 6
CCc1cccc(C)c1NC(=O)CN1C(=O)NC(CCc2ccccc2)C1=O (stereo not given) | -4
Cc1cc(C)nc(SC/C=C/c2ccccc2)n1 | -3
Cc1ccc(CNC(=O)COC(=O)c2nc(-c3ccccc3)oc2C)cc1 | 1
COc1cc(C(=O)Nc2cccc(C)c2C)ccc1OCC(=O)N1CCOCC1 | 0
Cc1cc(C(F)(F)F)nn1CC(=O)Nc1ccc2c(c1)OCO2 | -1
CC(Sc1nnc(Cc2ccccc2)o1)C(=O)NC1(C#N)CCCCC1 (stereo not given) | -8
C#CCOCCOCCOCCNc1nc(N2CCN(C(=O)[C@H]([C@@H](C)O)n3cc(CCCCN)nn3)CC2)nc(N2CCN(C(=O)[C@H](CCCCN)n3cc(CCC(=O)O)nn3)CC2)n1 | -2
COC(=O)[C@]1(C)N[C@H](CN(C)C(=O)c2ccc(C(C)(C)C)cc2)[C@@H]2C(=O)N(C)C(=O)[C@@H]21 | -1
CCC(=NNC(=O)c1ccc2c(c1)nc(C)n2CC)c1cc(F)ccc1O | 11
CCc1ccccc1Nc1nc(N)nc(COC(=O)c2c(C)noc2C)n1 | -5
C[C@H](CO)N1C[C@H](C)[C@@H](CN(C)S(=O)(=O)c2ccc(F)cc2)Oc2ccc(NC(=O)Cc3ccccc3)cc2C1=O | -3
COc1cc(/C=C2\SC(=S)N(CC(=O)O)C2=O)ccc1OS(=O)(=O)c1ccc(C)cc1 | -3
C=CCSc1nnc(NC(=O)C2CC(=O)N(Cc3ccc(C)cc3)C2)s1 (stereo not given) | 1
C=CCN1C(=O)c2ccc(C(=O)N3CCN(S(=O)(=O)c4cccc([N+](=O)[O-])c4)CC3)cc2C1=O | -1
O=C(Cn1cc(CNC(=O)C2CCCCC2)nn1)Nc1cc(C(F)(F)F)ccc1Cl | 9
CCOc1ccccc1C(=S)NC1CCCCC1 | 6
O=S(=O)(Nc1ccc(S(=O)(=O)N2CCCC2)cc1)c1ccccc1Br | -1
O=C(Nc1ccc(Br)cc1)c1cccc(N2C(=O)CCC2=O)c1 | u
CCCCC(CC)COC(=O)CCCCC(=O)OCC(CC)CCCC (stereo not given) | 1
CN(CC(=O)Nc1ccccc1Br)C(=O)CNC(=O)C1CCCCC1 | 8
COc1ccccc1C(CNC(=O)c1cc(S(=O)(=O)N2CCOCC2)ccc1C)N1CCCC1 (stereo not given) | -8
COc1ccc(C(=O)N/C(=C\c2ccc(SC)cc2)C(=O)NCCCn2ccnc2)cc1OC | 4
CC1CCCCC1NC(=O)COC(=O)c1cccn1C (stereo not given) | 5
Cc1cc(C)cc(OCC(=O)OCC(=O)Nc2cc(S(=O)(=O)N3CCOCC3)ccc2C)c1 | -3
CCOc1ccccc1N1CC(C(=O)Nc2cc(Cl)ccc2C)CC1=O (stereo not given) | -1
N#CCCN(C(=O)COC(=O)CSc1ccc(Cl)cc1)c1ccccc1 | -3
COc1ccc(NC(=O)[C@@H]2CCCN2C(=O)c2cccs2)cc1S(=O)(=O)N1CCCCC1 | -5
CNc1snc(C)c1C(=O)OCC(=O)N(C)c1ccccc1 | 3
Cc1cc(NC(=O)c2cc(S(=O)(=O)N3CCCCC3)ccc2C)no1 | 3
O=C(Nc1ccn(CC(=O)N2CCN(c3ccccn3)CC2)c(=O)n1)OCc1ccccc1 | 0
C/C=C1\NC(=O)[C@H](C)NC(=O)[C@@H](NC(=O)[C@@H](Cc2ccc(O)cc2)NC(=O)[C@@H](NC(=O)/C(C)=C/C)C(C)C)[C@@H](C)OC(=O)[C@H](CCCCc2ccc(O)cc2)NC(=O)[C@@H](CCC(=O)O)NC1=O | -3
Cc1ccc(C(CC(=O)O)NC(=O)c2ccc(S(=O)(=O)N3CC(C)OC(C)C3)cc2)cc1 (stereo not given) | 5
Cc1nnc(SCC(=O)Nc2ccc(S(N)(=O)=O)cc2)n(N)c1=O | -8
